High-throughput results deposited in PubChem BioAssay by Broad Institute.
HepG2: HepG2 cell cytotoxicity, dose response, cytotoxicity control, ATP luminescence, cherry-pick, activator set 2 (AID 1053143); HepG2 viability, CellTiter-Glo ATP luminescence, 72 h; AC50 in µM for hits, for the others activity change, negative = cytotoxicity, % at the top dose, mostly 26 µM; 3,400 tested, 3.7% active;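 active = fitted AC50 at most twice the highest valid dose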;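 note: 0 = neutral control and -100 = positive control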
* marks the source's active call; other numbers are inactive results; [ ] = remark or other dose.

SMILES	HepG2
O=C(Nc1ccc2c(c1)CCC2)c1ccc(F)c(S(=O)(=O)N2CCOCC2)c1	-11.9%
Cc1ccccc1NC(=O)Nc1ccc(C(F)(F)F)cc1	-25.9%
C(#CC1CCCC1)c1ccc2c(c1)COc1c3ccccc3nn1-2	-17.1%
O=C(Nc1ccc(N2CCCCC2)cc1)c1ccc(F)cc1F	-6.1%
COc1cc2ccccc2cc1C(=O)Nc1ccccc1Cl	-16.9%
Nc1ccc(-c2nnc(-c3ccc(N)cc3)o2)cc1	2.4%
CC(C)CN1CCC(=O)N(CCSc2ccccc2)CC1	-0.3%
Brc1ccccc1-n1nnc(-c2nccs2)n1	-1.4%
COC(=O)c1c(NC(=O)c2ccc(C)o2)sc2c1CCCCC2	19.4%
O=C(/C=C\Nc1ccc(Cl)cn1)c1ccc(Br)cc1	-10.8%
CCC1(CC)Nc2ccccc2C(=O)N1c1ccc(OC)cc1	-9.0%
CC(C)(C)c1cccc(N/C(=C\C(=O)c2ccccc2)c2ccccc2)c1	-4.9%
Cc1cc2nn(-c3ccc(Cl)cc3)nc2cc1N	21.4µM*
O=C(COc1ccc(Cl)cc1Cl)c1ccc[nH]1	-26.0%
Nc1nc(-c2ccc(Cl)cc2)nnc1-c1ccc(Br)cc1	-4.2%
CCc1nnc(NC(=O)c2ccc3ncsc3c2)s1	-3.9%
O=C(Nc1ccc2c(c1)OCO2)Nc1ccccn1	-15.1%
Cc1cccc(-n2ncc3c(N(C)Cc4ccccc4)ncnc32)c1	36.4%
COc1ccc(N(C(=O)c2ccc(S(=O)(=O)N3CCCC3)cc2)C2C=CS(=O)(=O)C2)cc1 (stereo not drawn)	-4.9%
Cn1c(SCC(=O)c2ccccc2)nnc1-c1ccc(O)cc1	2.6%
COCCNC(=O)c1cc(-c2cccs2)on1	26µM*
CC(C)NC(=O)COc1ccc(S(=O)(=O)N(C)Cc2ccccc2)cc1	-9.7%
Cc1cccc(/C(N)=N/OC(=O)c2ccc(Br)o2)c1	-0.5%
O=C(Nc1cc2c(cc1Cl)OCCCO2)c1ccc(F)cc1	-9.2%
O=C1N/C(=N/O)S/C1=C/c1cccc([N+](=O)[O-])c1	6.4%

The final 4 entries of the part before are carried over, then new ones follow.
SMILES	HepG2
CC(C)NC(=O)COc1ccc(S(=O)(=O)N(C)Cc2ccccc2)cc1	-9.7%
Cc1cccc(/C(N)=N/OC(=O)c2ccc(Br)o2)c1	-0.5%
O=C(Nc1cc2c(cc1Cl)OCCCO2)c1ccc(F)cc1	-9.2%
O=C1N/C(=N/O)S/C1=C/c1cccc([N+](=O)[O-])c1	6.4%
CCn1c(C)cc(/C=C2/SC(=O)N(C(C)C(=O)OC)C2=O)c1C (stereo not drawn)	14.7%
O=C(CN1C(=O)NC2(CCCCCC2)C1=O)c1ccc2c(c1)OCCO2	-0.3%
CCOc1cc(/C=C2/C(=N)N3OC(C)=CC3=NC2=O)ccc1OC	3.3%
CCCC(=O)Nc1ccc(C#Cc2ccccc2)cc1	-0.5%
NC(=O)C1CCCN(C(=O)c2ccc(-c3cccc(Cl)c3Cl)o2)C1 (stereo not drawn)	1.3%
O=C(COn1nnc2ccccc21)NCC1CCCCC1	-8.9%
Cc1ccc(C2=NN(S(C)(=O)=O)C(c3ccc4c(c3)OCO4)C2)cc1 (stereo not drawn)	-1.6%
O=C(Nc1ccc(-c2nc3ccccc3o2)cc1)c1cccnc1	10.4%
CCC(C)C(=O)Nc1nnc(-c2cccs2)s1 (stereo not drawn)	22.8%
O=C(CSc1nncs1)NCCCc1ccccc1	2.2%
CN(C)c1ccc(NC(=O)C(=O)C2C(=O)Nc3ccccc32)cc1 (stereo not drawn)	2.5%
O=C(Nc1ccc(Br)cn1)c1ccc(Br)s1	-12.4%
CCOC(=O)c1cc2cc3ccccc3cc2[nH]1	-2.9%
Cn1c(NCc2ccccc2O)nc2ccccc21	-8.8%
O=C(COC(=O)c1ccc(O)cc1)c1ccc2c(c1)OCCO2	-10.4%[12 µM]
CCOc1ccc(S(=O)(=O)N2CCN(C(=O)CN3C(=O)NC(C)(C)C3=O)CC2)cc1	0.4%
Cc1ccccc1NC(=O)c1cc2ccccn2n1	10.2%
Fc1ccc(-c2csc(/C=C/c3ccc4c(c3)OCO4)n2)cc1	-1.6%
O=C(Nc1ccc2ccccc2c1[N+](=O)[O-])c1ccccc1	-19.0%
c1ccc(CSc2ccc(-c3ccc4c(c3)OCO4)nn2)cc1	2.0%
O=C(c1cc2ccccc2oc1=O)N1CCOCC1	-9.8%[12 µM]
Cc1ccc(CNC(=O)COC(=O)C2CCN(S(=O)(=O)c3cccs3)CC2)cc1	-7.6%
COc1ccc(NC(=O)c2cccnc2SC)cc1OC	10.1%
CCCOc1ncnc2c1[nH]c1ccc(OC)cc12	5.3%
Cc1ccc2oc(=O)n(CCCOc3ccccc3)c2c1	1.7%
Remaining list, next part:
SMILES	HepG2
O=C(Nc1ccc2ccccc2c1)c1ccccc1Cl	-20.3%
COc1cccc2c1OC1(CCN(C(C)C)CC1)N1N=C(c3cccnc3)CC21 (stereo not drawn)	42.8%
CCc1ccccc1NC(=O)c1cccc(NC(=O)/C=C/c2ccco2)c1	-19.9%
CCc1ccc(C(=O)COC(=O)c2cccs2)cc1	-7.5%
Cc1ccc(C(=O)CSc2nnc3ccccn23)c(C)c1	-15.2%
Fc1ccccc1-c1cc2cc3c(cc2cn1)OCO3	-5.9%
COc1ccccc1N1CCN(/N=C/c2ccc(O)cc2O)CC1	-6.1%[12 µM]
COCc1cc(=O)n2[nH]c(C)c(-c3ccccc3)c2n1	-4.1%
O=C(Nc1ccc(Cl)cc1)Nc1ccccc1Sc1ncc([N+](=O)[O-])s1	-37.0%
CNC(=O)c1ccc(-c2cc(C(F)(F)F)nn2C)s1	5.1%
Cc1cccc2cc(/C=N/Nc3ccc(C(=O)O)cc3)c(Cl)nc12	6.9%
Cc1ccc(N2C(=O)SC(N(CC(=O)O)c3cccc(C)c3)C2=O)cc1 (stereo not drawn)	3.7%
O=c1oc2ccccc2c2c1ncn2CCN1CCOCC1	1.2%
O=C(OCc1c(-c2ccccc2)ncc2ccccc12)N1CCOCC1	6.6%
COc1ccc2cc(-c3ccccc3)ncc2c1	-13.8%
CCCCSc1nnc(-c2ccc(C)cc2)n1C	-6.3%
NC(=O)c1ccsc1NC(=O)c1coc2ccccc2c1=O	-8.3%
O=C(Nc1ccccc1)Nc1ccc(F)cc1F	-11.0%
CCOC(=O)C(=NC(C)C)NNc1cc(Cl)ccc1Cl	-21.9%
Brc1ccc(-c2csc(-c3ccncc3)n2)cc1	-12.5%[12 µM]
Cc1ccnc(NC(=O)C2COc3ccccc3O2)c1 (stereo not drawn)	4.1%[6 µM]
Cc1cc(C)cc(NC(=O)N(C)Cc2ccccc2)c1	-12.5%
C(#CC1CCCCC1)c1ccc2c(c1)COc1c3ccccc3nn1-2	-10.4%
C=CS(=O)(=O)c1c2cc(OC)ccc2nc2ccc(OC)cc12	25.4µM*
O=C(NNCc1ccccc1)c1ccccn1	-10.5%
(more compounds)
SMILES	HepG2
c1csc(-c2nc(-c3ccc(-c4ccon4)s3)no2)c1	-8.8%
O=C1NC(=O)C(=Cc2ccc(Cl)cc2Cl)S1	8.1%
C(=N\Nc1nccc(-c2cccnc2)n1)/c1ccccc1	-22.8%
Cc1ccc(C2C(C(=O)c3cccs3)=C(O)C(=O)N2c2cccc(C)n2)cc1 (stereo not drawn)	-5.4%
c1ccc(-n2ncc3c(NCCN4CCOCC4)ncnc32)cc1	-15.4%
CC(C)Oc1ccc2c(=O)c(-c3ccccc3)coc2c1	-3.4%
CCN1CCN(C(=O)c2ccc(-c3nc4ccccc4s3)s2)CC1	-15.1%
Nc1nc(-c2ccc(NC(=O)c3ccco3)cc2)cs1	-24.1%
Cc1nc(Nc2ccccc2)sc1-c1ccccc1	22.3%
Cc1ccc(/C=C/c2nc3ccccc3[nH]2)o1	-25.4%
COC(=O)c1cc(C)nc(Nc2nc(C(N)Cc3ccc(Cl)cc3)cs2)n1 (stereo not drawn)	-10.2%
COC(=O)C1=C(N)Oc2c(oc(CO)cc2=O)C1c1ccc(F)cc1 (stereo not drawn)	-12.3%
O=C(Nc1ccccc1F)c1ccc2c(c1)OCO2	-28.0%
COC(=O)c1ccc2[nH]c(C3(O)CCCCC3)c(C)c2c1	-11.6%
CC12CCC(C(=O)Nc3nc4ccc(Br)cc4s3)(OC1=O)C2(C)C (stereo not drawn)	-16.5%
Cc1ccccc1/C(N)=N/OC(=O)/C=C/c1ccccc1	-16.2%
Cc1ccsc1/C=N\NC(=O)c1ccc2c(c1)OCO2	-2.0%
COc1ccc(CNC(=O)COC(=O)c2c(NC(C)=O)sc(C)c2C)cc1OC	0.3%
O=C(COC(=O)c1ccc(F)c(S(=O)(=O)N2CCCCC2)c1)NCc1ccc(F)cc1	13.5%
CC(=O)NC(CC(=O)NNC(=O)COc1c(C)cccc1C)c1ccccc1 (stereo not drawn)	-0.5%
CCn1nnnc1SCC(=O)Nc1ccc2c(c1)OCCO2	0.9%
CCOC(=O)c1ccc(NC(=O)CC2SCCNC2=O)cc1 (stereo not drawn)	-8.0%
Nc1[nH]n(-c2ccccc2)c(=O)c1N=Nc1ccc2c(c1)OCCO2	-22.1%
O=C(/C=C\c1ccco1)Oc1cccc2cccnc12	26µM*
Cc1ccsc1/C=N/Nc1nc2ccccc2[nH]1	-6.6%

A second format for part of the listing above.
SMILES: COC(=O)c1cc(C)nc(Nc2nc(C(N)Cc3ccc(Cl)cc3)cs2)n1 (stereo not drawn)
  HepG2: -10.2%
SMILES: CC(=O)NC(CC(=O)NNC(=O)COc1c(C)cccc1C)c1ccccc1 (stereo not drawn)
  HepG2: -0.5%
SMILES: COC(=O)C1=C(N)Oc2c(oc(CO)cc2=O)C1c1ccc(F)cc1 (stereo not drawn)
  HepG2: -12.3%
SMILES: COc1ccc(CNC(=O)COC(=O)c2c(NC(C)=O)sc(C)c2C)cc1OC
  HepG2: 0.3%

Returning to the listing; the 3 compounds before the break are reprinted first.
SMILES	HepG2
Nc1[nH]n(-c2ccccc2)c(=O)c1N=Nc1ccc2c(c1)OCCO2	-22.1%
O=C(/C=C\c1ccco1)Oc1cccc2cccnc12	26µM*
Cc1ccsc1/C=N/Nc1nc2ccccc2[nH]1	-6.6%
O=C1OC(c2ccccc2)=C/C1=C/c1cccs1	-24.2%
CCNC(=O)COc1ccc(-c2ccccc2)cc1	-5.8%
CCOC(=O)c1ccc(NC(=O)N(CC)CC)cc1	-0.2%
Nc1nnc(/C=C/c2ccccc2Cl)s1	-18.6%
CC1CCN(C(=O)CNC(=O)c2ccc(Br)o2)CC1	2.5%
O=C(N=C1N=C2C=CC=CN2Cc2ccccc21)c1ccc(S(=O)(=O)N2CCCC2)cc1	-14.2%
CCOc1ccc(/C=C/C(=O)c2ccccc2)cc1OC	-3.5%
Cc1ccc2oc(C(=O)N(C)Cc3ccon3)c(C)c2c1	-6.7%
CC(C)(C)c1ccc(NC(=O)c2ccccc2)c([N+](=O)[O-])c1	-11.7%
COc1ccc(Cl)cc1S(=O)(=O)N1CCC(O)(c2ccc(Cl)cc2)CC1	-20.4%
CN(C)c1ccc(NC(=O)/C=C/c2ccccc2Cl)cc1	-6.5%
O=C(c1ccccn1)c1ccc2ccccc2n1	-3.3%
COc1ccc2nc3oc(C(=O)N4CCCCC4)cc3cc2c1	-8.8%
O=c1[nH]c(=O)n([C@H]2C[C@H](O)[C@@H](CO)O2)cc1Br	-9.4%
O=C(Nc1ccccc1Cl)c1cccc(COc2cc(Cl)ccc2Cl)c1	17.9%[12 µM]
COc1ccc(S(=O)(=O)n2ccc(-c3cnc(-c4ccccc4)s3)n2)cc1	-9.0%
O=C(Nc1ccc(Cl)cc1)N1CCC(c2ccccc2)C1 (stereo not drawn)	-13.7%
Nc1[nH]n(-c2ccccc2)c(=O)c1N=Nc1ccccc1	-8.7%
O=C(O)/C=C/C(=O)Nc1ccc2c(c1)C(=O)c1ccccc1C2=O	-13.6%
Cc1cccc(-c2nc(CN3CCN(Cc4cccc(F)c4)CC3)c(C)o2)c1	-13.1%
CC(C)N(Cc1nccn1C)C(=O)CCc1nnc(CCCc2ccccc2)o1	6.9%
Cc1cccc(/C(N)=N/OC(=O)c2ccncc2)c1	10.4%
CC1CCc2c(sc(/N=C/c3ccco3)c2C(N)=O)C1 (stereo not drawn)	-6.7%
Cc1cc(C(=O)Nc2ccc(Br)cc2)cs1	-11.6%
N/C(=N\OC(=O)c1ccco1)c1ccc(Cl)cc1	3.2%
(more compounds)
SMILES	HepG2
C(=C\c1ccco1)/c1nc2ccccc2[nH]1	26µM*
N/C(=N\OC(=O)c1ccc2ccccc2c1)c1ccncc1	-3.9%
Clc1ccccc1Nc1nc(-c2cccnc2)cs1	-9.3%
COc1ccc(NC(=O)c2cc3ccccn3n2)cc1	-13.4%
O=C(/C=C/Nc1ccc([N+](=O)[O-])cc1Br)c1cccc2ccccc12	110.3%
Nc1ccc2nc(NC(=O)C3CCCCC3)sc2c1	4.8%
CCOC(=O)c1cnn(-c2ccc(C)cc2)c1N	30.8%
COc1ccc(-c2nc3ccc([N+](=O)[O-])cc3[nH]2)cc1	-7.2%
OCC1OC(n2ccc3c(SCc4ccccc4)ncnc32)C(O)C1O (stereo not drawn)	-7.9%[6 µM]
O=C(O)CC(CN1C(=O)c2ccccc2C1=O)c1ccccc1 (stereo not drawn)	-19.4%
Cc1cc(NC(=O)CSc2nc3c(cc2C#N)CCCC3)no1	42.9%
COc1cc(CO)ccc1OCc1ccc(Cl)nc1	-13.2%[12 µM]
Cc1ccccc1C(=O)O/N=C(\N)c1ccncc1	21.0%[12 µM]
Cn1c(SCc2ccc(F)cc2)nnc1-c1ccccn1	-13.8%
COCC(=O)OCc1cc2cccc(C)c2[nH]c1=O	-13.6%
Fc1ccc2cc(-c3ccccc3F)ncc2c1	3.5%
Cn1ccnc1SCC(=O)c1c[nH]c2ccccc12	-5.9%[12 µM]
Cn1c(CNc2ccc(Br)cc2)nc2ccccc21	-15.7%
COc1ccccc1C(=O)O/N=C(\N)c1ccccc1Cl	-12.1%
COc1ccc(-c2cnc3c(-c4ccc(F)cc4)cnn3c2N)cc1	10.8%
Cc1ccc2nc(Cl)c(/C=N/Nc3ccc(C(=O)O)cc3)cc2c1	16.2%
Cc1ccc(CC(=O)O/N=C(\N)c2ccccn2)cc1	3.2%

This is a subset (hit frequency here may not be typical).
